# gsp agonist: qHTS for Agonist of gsp, the Etiologic Mutation Responsible for Fibrous Dysplasia/McCune-Albright Syndrome: qHTS. Potency, µM (highest dose often 76.9 µM), for the others: at the highest dose activation (cAMP increase), most hits filed as activators. 340,000 tested, 0.13% active. gsp mutant cells, cAMP HTRF, 30 min; control for the full effect not named in the record; active = well fitted activation curve with a large enough effect; inconclusive = small, poorly fitted or top-dose-only effect, or another doubt; inactive = no such curve, though single readings can be large or run the other way; cell line not stated here;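 note: phosphodiesterase inhibitor Ro 20-1724 added with compounds to block cAMP breakdown; potency is the fitted concentration of half-maximal effect; nearly all actives have a fitted effect of over 60% in size; about a fifth of the inactives were tested at one dose only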
#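 Cells in DMEM/10% FBS with G418 were pretreated with compounds in DMSO plus […] (300 uM stock) for 30 min at 37C. cAMP was measured by HTRF (cAMP-d2 plus anti-cAMP antibody-K) after 30 min at room temperature.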
# Menin MLL FP FL: qHTS Assay for Inhibitors Targeting the Menin-MLL Interaction in MLL Related Leukemias: Competition With Fluorescein Labeled MLL-derived Peptide. AID 1766, 2009. 290,000 tested, under 10 active. FP activity change, % at 61.4 µM. Fluorescence polarization, fluorescein-MLL peptide displacement from menin; inconclusive = falling polarisation curve, or a change in total fluorescence; inactive = total fluorescence flat and polarisation flat or rising; no compound was filed as active; the % refers to the polarisation; negative = inhibition;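 note: % of control where 0% means no effect; inhibitors lower the polarisation; unlabelled MLL peptide was the positive control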
# gsp antagonist: qHTS for Antagonists of gsp, the Etiologic Mutation Responsible for Fibrous Dysplasia/McCune-Albright Syndrome: qHTS | gsp-mutant cells, cAMP HTRF, 30 min; control for the full effect not named in the record | Potency, µM (highest dose often 76.9 µM), inactives show at the highest dose activity change, negative = inhibition, actives largely listed as inhibitors | 340,000 tested, 0.4% active; active = falling curve of any shape with a large fitted effect; inconclusive = falling curve, mostly with a smaller effect; inactive = flat or rising curve; cell line not stated here;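 note: intracellular cAMP measured with PDE inhibitor Ro 20-1724 present during compound exposure; potency is the fitted concentration of half-maximal effect; % is set by controls: 0 for no effect and ±100 for the full control effect; nearly all actives have a fitted effect of over 65% in size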
#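 HTRF cAMP measurement after 30 min RT detection following 30 min, 37C compound treatment alongside […] (added as 300 uM solution) in G418-selected cells seeded at 2000/well and grown 16–24 h.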
# TRPML1 ag: qHTS for Agonists of the Human Mucolipin Transient Receptor Potential 1 (TRPML1); Mucolipin-1 (Homo sapiens), Q9GZU1; TRPML1-expressing cells, Ca2+ dye fluorescence, FDSS; host cell line not named in the record; reference of the full effect not given here; activation, % (concentration not given with the values); 410,000 tested, 0.12% active; AID 624414, 2012; in the data active = activation above about 50%; inconclusive = about 30% to 50%; inactive = below about 30%; note: 0% is about no effect; the text of the record puts the active cut at 80%
# Target sequence (Q9GZU1 whole entry, looked up): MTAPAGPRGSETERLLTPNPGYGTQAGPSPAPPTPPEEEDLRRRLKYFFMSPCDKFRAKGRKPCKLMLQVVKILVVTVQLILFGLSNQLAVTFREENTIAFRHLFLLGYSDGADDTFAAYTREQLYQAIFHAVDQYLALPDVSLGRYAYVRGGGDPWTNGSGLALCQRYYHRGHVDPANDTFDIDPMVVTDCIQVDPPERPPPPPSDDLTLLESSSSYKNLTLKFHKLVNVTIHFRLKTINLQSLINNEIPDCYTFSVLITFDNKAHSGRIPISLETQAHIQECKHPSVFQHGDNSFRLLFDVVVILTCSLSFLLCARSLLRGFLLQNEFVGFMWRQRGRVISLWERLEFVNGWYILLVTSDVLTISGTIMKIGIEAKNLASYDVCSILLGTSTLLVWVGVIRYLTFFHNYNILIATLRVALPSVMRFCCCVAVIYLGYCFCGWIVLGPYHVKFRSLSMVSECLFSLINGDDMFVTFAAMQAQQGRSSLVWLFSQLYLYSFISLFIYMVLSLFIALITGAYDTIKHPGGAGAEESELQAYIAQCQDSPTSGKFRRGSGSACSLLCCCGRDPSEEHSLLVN
#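 Tet-induced TRPML1-DL cells, 1,500 per well, cultured overnight, were loaded with a no-wash Ca2+ dye for 45–90 min. Calcium fluorescence was recorded on the FDSS for 110 s after compound addition, before the EC80 agonist (4 uM 54-4) was added.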
# TRPML1 blocker: qHTS for Inhibitors of the Human Mucolipin Transient Receptor Potential 1 (TRPML1); Mucolipin-1 (Homo sapiens), Q9GZU1; TRPML1-inducible cells, Ca2+ dye fluorescence, FDSS; active compounds read low; inhibition of EC80 agonist-evoked calcium signal; activity change, negative = inhibition, % (concentration not given with the values); 390,000 tested, 0.02% active; AID 624415, 2012; in the data active means activity change below about -50%; inconclusive means about -30% to -50%; inactive means above about -30%;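 note: stimulus is agonist 54-4 at its EC80 concentration; % is set by controls: 0 for no effect and ±100 for the full control effect; the text of the record puts the active cut at -80%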
#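 TRPML1-DL cells, Tet-induced overnight (~16 h, 37 °C) at 1,500 cells/well, were loaded with Ca8 no-wash dye plus quencher for 45-90 min at room temperature. Compounds were pinned during FDSS kinetic reading; agonist 54-4 at EC80 (4 uM final) then added.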
# ClpP mod: qHTS Assay for Activators of ClpP. ATP-dependent Clp protease proteolytic subunit (Bacillus subtilis (strain 168)), P80244. purified B. subtilis ClpP, FRET peptide cleavage, 20 min. Potency, µM (doses to about 57.5 µM), inactives show at the top dose activity change, negative = active. 340,000 tested, 1.9% active; active = well fitted falling curve with a large enough effect; inconclusive = small, poorly fitted or top-dose-only effect; inactive = no such curve, though single readings can be large or run the other way; note: potency is the fitted concentration of half-maximal effect; the source files actives as falling curves though it sought activators and does not explain the sign; nearly all actives have a fitted effect of over 65% in size; many hits overshoot -100%
# Target sequence (P80244 whole entry, looked up): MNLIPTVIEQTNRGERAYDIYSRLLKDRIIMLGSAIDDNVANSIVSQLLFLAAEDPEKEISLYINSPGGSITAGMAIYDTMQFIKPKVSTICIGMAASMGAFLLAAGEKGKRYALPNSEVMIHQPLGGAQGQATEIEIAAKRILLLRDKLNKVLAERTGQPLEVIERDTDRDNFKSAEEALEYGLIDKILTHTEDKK
#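 FRET quenching reversal measured ClpP activation: 10 microg/mL B. subtilis ClpP at pH 8 with the FRET-FV decapeptide, read at 430 nm after 320 nm excitation. The 20-min minus 0-min signal was scaled between DMSO/no-enzyme wells and ADEP (5.8 microM final).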
# * hit, by the source's call; u = inconclusive; x = not tested or not shown; & = joins results of further samples; [ ] = remark or other dose.
SMILES,gsp agonist,Menin MLL FP FL,gsp antagonist,TRPML1 ag,TRPML1 blocker,ClpP mod
O=C1Cc2cc(S(=O)(=O)Nc3ccc(F)cc3Cl)ccc2N1,3%,x,1%,3.5,13,4.8%
CCOc1cc2c(cc1OCC)C(c1ccccc1)N(c1ccccc1)C(=O)C2 (stereo unspecified),7%[15.4 µM],4.4,-2%,0.9,-4,0.8%
O=c1c(-c2ccc(Br)cc2)coc2c(CN3CCCCC3)c(O)ccc12,13%,5.0,1%,1.5,9,u
O=C(NC1CCCCC1)C1CCN(S(=O)(=O)c2cccc3nsnc23)CC1,19%,4.6,9%,0.2,-11,-0.4%
N#Cc1ccc(C(=O)NCc2ccc3c(c2)CCN3C(=O)c2ccc(F)cc2)cc1,x,x,x,-0.1,-6,-2.9%
COC(=O)c1ccc(C)c(NC(=O)CCCN2C(=O)CN(C)C2=O)c1,11%,x,3%,0.7,1,x
COc1ccc(OCC(=O)Nc2cc3c(cc2C(=O)O)OCCCO3)cc1,u,0.2,-19%,1.3,-19,-17%
COCCn1cnnc1SCC(=O)Nc1sc2c(c1C#N)CCC2,-70%[inhibitor],x,-8%,1.5,-12,-2.8%
CCCCOc1ccc(C(=O)Nc2ccc(S(=O)(=O)Nc3cc(C)on3)cc2)cc1OC,-38%[inhibitor],-0.7,-16%,0.6,-6,-1.6%
CCOc1cc(C(=O)NN2CCOCC2)cc(OCC)c1OCC,14%,-5.0,15%,0.5,-7,1.0%
COc1ccc(OCc2cc(C(=O)NC(C)Cn3cncn3)no2)c(Cl)c1 (stereo unspecified),-20%,x,2%,0.6,7,-1.3%
O=C(COc1ccccc1)N1CCN(C(=O)COc2ccccc2)CC1,-4%[15.4 µM],-0.8,-4%,-0.4,-5,x
O=C(CSc1nnc(-c2ccc(F)cc2)o1)Nc1ccc(S(=O)(=O)N2CCCC2)cc1,-27%,0.7,-12%,4.2,3,1.5%
Cc1ccc(C(=O)N2CCC(c3c[nH]c4ccccc34)(c3c[nH]c4ccccc34)CC2)cc1,x,x,x,-0.6,1,-0.7%
COc1ccc(CNC(=O)C2CCCN(c3nn4c(=O)cc(C)nc4s3)C2)cc1 (stereo unspecified),29%,x,-7%,0.4,0,0.3%
Cc1cccc(NC(=S)NCCO)c1C,-46%[inhibitor],-2.4,2%,0.1,11,0.5%
Cc1cc(C)cc(-n2c(C)cc(/C=N/NC(=O)c3cccc([N+](=O)[O-])c3C)c2C)c1,-16%,4.0,-2%,0.2,39,0.8%
Cc1sc(-n2c(C)cc(/C=C3\SC(=S)NC3=O)c2C)c(C#N)c1C,10%,u,-39%,-0.6,-2,0.9%
CCOc1cc(/C=C(\C#N)c2nc(-c3cccs3)c(NC(C)=O)s2)ccc1O,-15%[15.4 µM],u,u,22,-8,1.6%
O=C(CNC(=O)c1ccccc1F)NC1CC1,-3%,-1.7,-1%,-0.6,9,0.1%
O=C(CSc1ccccn1)Nc1ccc(Cl)c([N+](=O)[O-])c1,4%[15.4 µM],-0.5,5%,-1.1,30,-2.1%
Cc1ccc(-c2csc3ncnc(OCC(=O)NC(=O)NCc4ccco4)c23)cc1,-21%,8.0,-11%,-0.1,u,0.5%
COc1ccc(OC)c(NC(=O)NNC(=O)COc2ccc(F)cc2F)c1,3%[15.4 µM],-2.4,2%,-0.6,-10,-0.7%
COc1ccc(NC(=O)CCS(=O)(=O)c2ccc3c(c2)CCCN3C(C)=O)cc1Cl,-10%,-3.7,9%,3.1,-21,-0.4%
O=C(NCCc1ccc(Cl)cc1)C(=O)NCC(c1ccc2c(c1)OCO2)N1CCOCC1 (stereo unspecified),x,x,x,1.1,-22,0.8%
CCOc1ccc(S(=O)(=O)N/N=C(\C)C2CCCCC2)cc1,-8%,7.1,7%,2.6,-2,1.0%
O=c1c2ccccc2nc(/C=C/c2cccc([N+](=O)[O-])c2)n1CCO,u,4.3,-17%,0.3,-26,x
O=C(O)/C(=C\c1ccc(-c2ccc(F)cc2)o1)c1ccccc1,9%[15.4 µM],12,-2%,3.1,3,x
CCOC(=O)CSc1nnc(CNC(=O)c2ccc(OC)cc2)n1-c1ccc(OC)cc1,3%,1.5,0%,3.2,7,-0.1%
Cc1ccc(C)c(S(=O)(=O)N/N=C/c2ccc(F)cc2)c1,u,4.2,-10%,2.4,-6,-1.9%
Cc1cc(C(=O)N/N=C/c2ccco2)n[nH]1,-1%[15.4 µM],-0.6,9%,1.2,-7,x
O=C(NC1CCCC1)c1cc2c(ccc3ccccc32)o1,-8%,-2.2,u,0.8,-7,67%
Cc1cc(C)c(C(=O)C(C)OC(=O)Cc2n[nH]c(=O)c3ccccc23)cc1C (stereo unspecified),-13%,x,4%,1.0,3,0.3%
c1csc(C2=NC(c3ccncc3)=Nc3ccccc3N2)c1,x,x,x,2.5,47,-1.0%
O=C(O)c1ccccc1CSc1nc2ccccc2[nH]1,11%[15.4 µM],5.6,11%,-0.3,23,x
O=C(NCC1CCN(c2ccc(S(=O)(=O)N3CCOCC3)cc2)CC1)c1cccc(Cl)c1,-9%,0.3,u,1.4,16,-8.4%
CCOc1cccc(SCc2noc(C(=O)NCCOC)c2C(=O)O)c1,-12%,-0.4,0%,-0.7,-6,-2.1%
CCOC(=O)N1CCN(C(=S)NC(=O)c2c(-c3c(Cl)cccc3Cl)noc2C)CC1,-13%,6.3,-7%,0.2,11,x
CC(=O)c1ccc(OCC(=O)NCC(c2ccco2)N2CCCCC2)cc1 (stereo unspecified),1%[15.4 µM],5.0,16%,-0.5,-3,-8.9%
Cc1cccc(Cn2c(SCCN3CCOCC3)nc3c2c(=O)n(C)c(=O)n3C)c1,u,1.3,-5%,-0.4,14,-1.7%

# Grouped by structure, those above with a COOH group
SMILES,gsp agonist,Menin MLL FP FL,gsp antagonist,TRPML1 ag,TRPML1 blocker,ClpP mod
COc1ccc(OCC(=O)Nc2cc3c(cc2C(=O)O)OCCCO3)cc1,u,0.2,-19%,1.3,-19,-17%
O=C(O)/C(=C\c1ccc(-c2ccc(F)cc2)o1)c1ccccc1,9%[15.4 µM],12,-2%,3.1,3,x
O=C(O)c1ccccc1CSc1nc2ccccc2[nH]1,11%[15.4 µM],5.6,11%,-0.3,23,x
CCOc1cccc(SCc2noc(C(=O)NCCOC)c2C(=O)O)c1,-12%,-0.4,0%,-0.7,-6,-2.1%

# (cont.)
SMILES,gsp agonist,Menin MLL FP FL,gsp antagonist,TRPML1 ag,TRPML1 blocker,ClpP mod
CCOc1ccc2nc(NC(=O)CN3CCOCC3)sc2c1,-18%[15.4 µM],-1.3,15%,-0.4,-2,x
CCOc1cccc2cc(C(=O)OCC(=O)Nc3c(C)cccc3CC)c(=O)oc12,29%,x,-17%,1.0,6,13%
COc1ccccc1NC(=O)C(C)OC(=O)C1COc2ccccc2O1 (stereo unspecified),u,x,4%,-0.9,6,0.9%
COc1ccc(N2C(=O)C3CCCN3C2=S)cc1 (stereo unspecified),1%,5.7,4%,-0.2,31,x
COC(=O)N/N=C\c1c(C)nn(-c2ccccc2)c1Cl,19%[15.4 µM],0.8,1%,-0.7,1,-7.5%
COCCNc1nc(N)c([N+](=O)[O-])c(NCC2CCCO2)n1 (stereo unspecified),0%[15.4 µM],-1.3,11%,-0.4,7,25µM*
Cc1ccccc1OCC(=O)NCCNC(=O)c1cccnc1,u,5.1,9%,0.0,-8,x
COc1ccc(C(O)P(=O)(OCCC(C)C)c2ccc(N(C)C)cc2)cc1OC (stereo unspecified),10%[15.4 µM],-4.5,u,0.7,26,x
COc1ccc(CC(=O)Nc2c(C(=O)N3CCN(c4ccccc4)CC3)oc3ccccc23)cc1OC,-34%[inhibitor],1.1,-20%,0.8&0.8,9&26,-0.7%&-5.8%
CCN1C(=O)[C@H]2[C@H]3CN=C(SC)N3[C@@](Cc3ccccc3)(C(=O)OC)[C@H]2C1=O,x,x,4%,3.0,23,-0.1%
O=C(N/N=C/c1ccccc1OC(F)F)NC1CCCCC1,19%[15.4 µM],4.0,3%,2.6,23,x
COc1ccc(OC)c(C2CC(=O)Nc3c2c(=O)[nH]c2ncnn32)c1 (stereo unspecified),-1%[15.4 µM],-7.5,-9%,-0.8&1.2,u,-2.4%
Cc1cccc(N2CCN(C(=O)c3c(-c4ccccc4)noc3C)CC2)c1C,u,x,1%,-0.6,16,-0.5%
Cc1cccc(N/C=C/C(=C(C#N)C#N)N(C)C)c1,-17%,5.0,13%,-0.9,10,0.5%
COc1ccc(C)cc1NC(=O)/C=C/c1ccc(OC)c(S(=O)(=O)N2CCOCC2)c1,-16%,x,-35%,0.0,-4,0.6%
Cn1c(CC(=O)Nc2ccccc2)nnc1SCC(=O)NC1=NCCS1,-6%[15.4 µM],1.6,14%,-0.1,-9,x
COc1cc2c(cc1OC)C(CNC(=O)C=Cc1ccccc1)C2 (stereo unspecified),-39%[inhibitor],x,x,-0.2,2,-0.7%
CCOC(=O)c1c(C)[nH]c(C(=O)N/N=C/c2cc([N+](=O)[O-])ccc2O)c1C,24%[15.4 µM],0.2,-13%,0.0,-14,x
CC1=CC(=O)C=C(C)C1=NOC(=O)c1cccc([N+](=O)[O-])c1,-4%,0.9,u,-0.2,13,2.5%
N#Cc1ccc(OCc2cccc(S(=O)(=O)N3CCOCC3)c2)cc1,-5%,x,5%,0.7,10,0.7%
COc1ccccc1NC(=O)C(=O)N/N=C(\C)CC(=O)Nc1ccc(OCc2ccccc2)cc1,15%,3.0,2%,2.1,-2,0.1%
CC1(C)C(=O)Nc2ccccc2N1C(=O)COC(=O)c1ccc([N+](=O)[O-])o1,-14%,x,9%,-0.3,-4,-2.8%
O=C(O)CSc1c[nH]c2ccccc12,7%,-2.2,9%,-0.1,68,-5.6%
Cc1ccc(Cn2nnc3c(=O)[nH]c(C4CCN(S(=O)(=O)c5ccccc5)CC4)nc32)cc1,13%,-1.0,6%,2.1,28,-0.1%
COc1ccccc1N1CCN(C2CCCN(Cc3cccc(O)c3)C2)CC1 (stereo unspecified),-1%,-1.1,12%,0.6,7,1.0%
Cc1[nH]n(-c2ccccc2)c(=O)c1N=Nc1ccc2c(c1)OCO2,-11%,1.5,5%,-0.6,0,x
